Assay outcomes as filed in PubChem.
GIRK2 activ: opens human GIRK2 potassium channels; HEK293-GIRK2 thallium flux, Thallos fluorescence; AID 1259325; 63,000 compounds, 0.05% hits; calls only for hits at 25 µM; P48051;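 active = among the strongest 0.2% of first-round signals and kept after retests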;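 also: first round at about 10 µM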
Target sequence (P48051 whole entry, looked up): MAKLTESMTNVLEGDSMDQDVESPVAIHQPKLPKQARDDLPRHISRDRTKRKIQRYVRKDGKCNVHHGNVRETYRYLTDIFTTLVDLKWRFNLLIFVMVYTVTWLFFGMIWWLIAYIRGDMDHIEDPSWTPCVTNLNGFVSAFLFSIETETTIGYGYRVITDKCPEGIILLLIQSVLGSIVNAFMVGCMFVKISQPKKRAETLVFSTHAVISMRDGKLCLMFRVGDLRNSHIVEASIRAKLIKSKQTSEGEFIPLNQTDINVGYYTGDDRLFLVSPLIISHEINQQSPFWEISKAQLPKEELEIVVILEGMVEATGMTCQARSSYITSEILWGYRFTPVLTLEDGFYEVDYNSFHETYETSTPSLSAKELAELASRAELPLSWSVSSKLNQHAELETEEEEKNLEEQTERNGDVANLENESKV
Calls only; i = inactive. The list is partial. The share of hits here may be higher or lower than overall.

| GIRK2 activ | Molecule |
| --- | --- |
| i | CC(C)(C)C(O)CCNC(=O)c1ccc(OC(F)(F)F)cc1 (centres undefined) |
| i | O=C(Cc1ccc(F)cc1)Nc1ccccc1NC(=O)c1cccc(Cl)c1 |
| i | COc1ccc(OC)c(C2c3c(oc4ccccc4c3=O)C(=O)N2CCCN(C)C)c1 (centres undefined) |
| i | Cc1ccc(N2N=NC3C(=O)N(c4ccccc4)C(=O)C32)cc1C (centres undefined) |
| i | O=C(O)CSc1ccnc(SCC(=O)O)n1 |
| i | O=C(Oc1ccc2c(c1)O/C(=C\c1cc(Br)cc3c1OCOC3)C2=O)c1ccco1 |
| i | Cc1noc(C)c1CN1N=C(C(=O)N2CCOCC2)S(=O)(=O)c2ccccc21 |
| i | Cn1c(=O)[nH]c(=O)c2c1nc(N1CCN(c3ccccc3)CC1)n2CC(O)COc1ccccc1 (centres undefined) |
| i | CC1CCN(c2cc(NC(=O)Cc3ccc(Br)cc3)ncn2)CC1 |
| i | CC1CCN(c2cc(NC(=O)NCc3cccs3)ncn2)CC1 |
| i | CC(=O)c1ccc(NC(=O)CN2CCN(Cc3nc4ccccc4[nH]3)CC2)cc1 |
| i | Cc1cc(C)n(-c2nc(CCNC(=O)c3cc(C)oc3C)cs2)n1 |
| i | CCOc1ccccc1C(=O)N1CCN(c2nnc(SCC(=O)NC(C)C)s2)CC1 |
| i | O=C(Nc1nnc(C2CC(=O)N(c3ccccc3)C2)o1)c1ccc(S(=O)(=O)N2CCOCC2)cc1 (centres undefined) |
| i | COc1ccc(NC(=O)COc2ccccc2C)cc1N1CCCCC1=O |
| i | COC(=O)Cn1c(=O)c2c(nc3n2CCN3c2cc(C)ccc2C)n(C)c1=O |
| i | COc1cccc(CNC(=O)c2snc(-c3ccccn3)c2NC(=O)C(C)C)c1 |
| i | O=C(c1cc2ccccc2[nH]1)N1CCN(c2ncccn2)CC1 |
| i | c1ccc(-c2[nH]c3ccccc3c2C(c2ccccn2)N2CCCC2)cc1 (centres undefined) |
| i | COc1ccc(C)cc1NC(=O)c1ccc(-n2ccnc2)nn1 |
| i | COCC(C)(O)CNC(=O)C(=O)NCc1ccccc1OC (centres undefined) |
| i | Cc1ccc(N2CCN(S(=O)(=O)c3ccc(Cl)c(Cl)c3)CC2)c(C)c1 |
| i | Cn1nnnc1SCC(=O)Nc1cc(OCc2ccc3c(c2)OCO3)ncn1 |
| i | Cc1ccc(Oc2nccn3c(=O)n(CC(=O)NCCC4=CCCCC4)nc23)cc1 |
| i | COc1ccc(C(=O)NC2CCN(C(=O)c3cn(-c4cccc(Cl)c4)nn3)CC2)cc1 |
| i | Cc1cc(C)c(S(=O)(=O)Nc2ccc3c(c2)N(S(=O)(=O)c2ccccc2)CCC3)c(C)c1 |
| i | CCOC(=O)c1cnn2ccc(NC(=O)c3ccc(S(=O)(=O)N(C)C)cc3)cc12 |
| i | N#Cc1cccc(Nc2ncc(-c3ccccc3)o2)c1 |
| i | CCOC(=O)c1c(NC(=O)CSc2nnnn2-c2ccc(OC)cc2)sc(C)c1C |
| i | CCOC(=O)Cc1csc(NC(=O)c2coc(NC(=O)c3cnccn3)n2)n1 |
| i | C=CCn1c(=O)c2c(nc3n(-c4ccccc4O)c(C)cn23)n(C)c1=O |
| i | Cc1cc(C)c2oc(C(=O)N3CCCc4ccccc43)cc(=O)c2c1 |
| i | CC(Oc1ccccc1)C(=O)N1CCOCC1CN(C)CCO (centres undefined) |
| i | COc1cc(OC)cc(N(C)S(=O)(=O)c2ccsc2-c2nc(-c3cccc(F)c3)no2)c1 |
| i | COc1ccc(NC(=O)C(=O)NCCc2ccc(S(N)(=O)=O)cc2)cc1OC |
| i | COc1ccc(C(=O)N2CCN(c3cc(Nc4cc(C)ccn4)nc(C)n3)CC2)cc1OC |
| i | O=C(c1cccc2ccccc12)N1CCN(Cc2nc3ccccc3[nH]2)CC1 |
| i | CN(C)C(CNC(=O)C(=O)NCC1CCCO1)c1cn(C)c2ccccc12 (centres undefined) |
| i | CCn1cc(/C=c2/sc3n(c2=O)C(c2ccc(C)o2)C(C(=O)Nc2ccccc2)=C(C)N=3)c(C)n1 (centres undefined) |
| i | CCC(C(=O)N1CCN(c2nnc(SCC(=O)Nc3cc(C)on3)s2)CC1)c1ccccc1 (centres undefined) |
| i | Cc1[nH]nc(S(=O)(=O)Nc2ccc(Cl)cc2)c1C(=O)Nc1cccc(C(C)C)c1 |
| i | COCCOCC1CCN(C(=O)c2cnc3ccccc3n2)CC1 |
| i | COc1cc(Br)c(C2NC(=O)NC(C)=C2C(=O)Nc2ccc(C)cc2)cc1OC (centres undefined) |
| i | C#CCn1c(C2CC(=O)N(c3ccc(OC)cc3)C2)nc2ccccc21 (centres undefined) |
| i | CC(=O)Nc1ccc(SCCCC(=O)N2CCC(Cc3ccccc3)CC2)nn1 |
| i | CN(C)C(=O)Cc1ccc(NC(=O)c2cnn(-c3ccccc3)n2)cc1 |
| i | COc1ccc(-c2nnc(CC(=O)N3CCN(c4ccccc4F)CC3)o2)cc1 |
| i | Cc1ccc(N2CC(C(=O)N3CCC(Oc4ccccn4)CC3)CC2=O)cc1C (centres undefined) |
| i | Cc1c(C(=O)N2CCN(S(C)(=O)=O)CC2)nnn1-c1nc2c(s1)CCCC2 |
| i | COc1ccc(NC(=O)C2CSCCC(=O)N2)cc1Cl (centres undefined) |

Next part.
| GIRK2 activ | Molecule |
| --- | --- |
| i | CC(O)CC(=O)OC(C)Cc1cc(O)cc(O)c1C(=O)OC(C)CC(=O)OC(C)Cc1cc(O)cc(O)c1C(=O)OC(C)Cc1cc2cc(O)cc(O)c2c(=O)o1 (centres undefined) |
| i | C=CCN1C(=O)c2ccc(C(=O)O)cc2C1=O |
| i | NS(=O)(=O)c1ccc(CNC(=O)c2c3c(nn2C2CCS(=O)(=O)C2)CCC3)cc1 (centres undefined) |
| i | O=C(Cn1cc(-c2ccc(F)cc2)cn1)N1CCCc2ccccc21 |
| i | COC(CNC(=O)C1CN(C(=O)c2cc(C)on2)C1)OC |
| i | COc1cc(/C=C/C(=O)O)ccc1S(=O)(=O)N1CCCc2ccccc21 |
| i | O=C(Nc1nc2c(s1)CN(C(=O)/C=C/c1ccco1)CC2)c1ccsc1 |
| i | CN(C)c1oc(-c2ccc(COc3ccccc3)o2)nc1C#N |
| i | Cc1cc(NS(=O)(=O)c2ccc(NC(=O)COc3ccccc3Br)cc2)no1 |
| i | COCC1CCCN(CC(=O)Nc2nnc(C)s2)C1 (centres undefined) |
| i | CCOc1ccc(C(=O)N2CC(c3nc(C4CC4)no3)C2)cc1OCC |
| i | Cc1cc(C)n(-c2cc(SCC(=O)NCCC(C)C)ncn2)n1 |
| i | Cc1onc(-c2ccccc2)c1-c1ccc(S(N)(=O)=O)cc1 |
| i | Cc1cc(C)c(NC(=O)Cn2cccc(-c3nc(-c4ccc(Cl)cc4)no3)c2=O)c(C)c1 |
| i | CCCCN(C)CCNC(=O)CCCn1c(=S)[nH]c2cc3c(cc2c1=O)OCO3 |
| i | Cc1nc(-c2cccc(NC(=O)c3ccc(=O)oc3)c2)cs1 |
| i | Cc1csc(N2C(=O)c3oc4ccc(Cl)cc4c(=O)c3C2c2ccccc2)n1 (centres undefined) |
| i | O=c1cccnn1CCNS(=O)(=O)c1ccc(OC(F)(F)F)cc1 |
| i | COc1ccc(NC(=O)Nc2ccc3c(c2)CCC(=O)N3CCC(C)C)cc1 |
| i | O=C(CCSc1ccccc1)Nc1ccc(CC(=O)N2CCOCC2)cc1 |
| i | COc1ccc(CN2C(=O)c3cccc4cccc(c34)C2=O)cc1S(=O)(=O)N1CCCCC1 |
| i | CCOC(=O)C1=C(C)NC(=O)NC1c1ccc(N(CC)CC)cc1 (centres undefined) |
| i | Nc1cc(Br)ccc1C(=O)O |
| i | CCS(=O)(=O)CCNC(=O)c1cnn2c1OCCC2 |
| i | CCn1ccc(C(=O)Nc2cc(C)nn2-c2nc3c(F)cccc3s2)n1 |
| i | O=C(NCCCn1ccnc1)C(=O)NCCc1ccccc1 |
| i | Cc1ccc(CNC(=O)CSc2n[nH]c(=O)c3cc(-c4ccco4)nn23)cc1 |
| i | Cc1cccc(N2CCN(C(=O)CCc3nc4sc5c(c4c(=O)[nH]3)CCCCC5)CC2)c1C |
| i | COCC(=O)N1CCN(c2nnc(SCC(N)=O)s2)CC1 |
| i | COc1ccc(C(=O)Nc2cnoc2)c(OC)c1OC |
| i | O=C(Cn1nc2c(c1NC(=O)CCc1ccccc1)CSC2)NCCc1ccccc1 |
| i | Cc1cccc(NC(=O)Nc2ccc(Cl)c(N3CCCS3(=O)=O)c2)c1 |
| i | O=C(CCn1ccc(=O)[nH]c1=O)N1CCN(CCn2ccnc2-c2ccccc2)CC1 |
| i | O=C(Cn1c(=O)oc2ccccc21)Nc1nnc(-c2cccs2)o1 |
| i | COc1ccccc1OCC(=O)N1CCC(Oc2ccc(C#N)cn2)CC1 |
| i | Cc1ccc(-n2ccc(=O)c(-c3nc(-c4ccc(Br)cc4)no3)n2)cc1 |
| i | O=C(NCc1cccc2ccccc12)N1CCOC2(CCOCC2)C1 |
| i | CNC(=O)CSc1nc(-c2cccs2)cc(C(F)(F)F)c1C#N |
| i | COCc1c(-c2nnc(Cc3ccccc3)o2)nnn1-c1cccc(C(F)(F)F)c1 |
| i | Cn1cc(OCc2ccccc2)c(=O)cc1C(=O)Nc1ccc(Cl)cc1 |
| i | CC1(C)Cc2cccc(OCC(=O)NCCCS(=O)(=O)N3CCN(c4ccccn4)CC3)c2O1 |
| i | O=C(C1CCN(c2cc(Oc3ccccc3)ncn2)CC1)N1CCN(c2ccccc2Cl)CC1 |
| i | COc1ccc(Cc2nnc(C3CCN(C(=O)C4CC4)CC3)s2)cc1 |
| i | O=C(NCc1ccc2c(c1)OCO2)N1CCCCC1 |
| i | O=C(Nc1ccccn1)c1c[nH]c2c(Cl)cccc2c1=O |
| i | Cc1cccc(-n2nnc(C(=O)Nc3ccccc3Cl)c2C(C)C)c1 |
| i | Cc1cc(=O)n2[nH]c(Nc3ccccc3)nc2n1 |
| i | COc1ccc(Cl)cc1C(=O)N1CCOCC1CN(C)C (centres undefined) |
| i | O=C(NCc1ccc(F)cc1)C1CCCN(c2ccc(-c3ccco3)nn2)C1 (centres undefined) |
| i | O=C(NCCCn1ccnc1)C(=O)Nc1cccc(N2CCCC2=O)c1 |

More structures follow:
| GIRK2 activ | Molecule |
| --- | --- |
| i | O=C(c1nnn(Cc2cccc(F)c2)c1-n1cccc1)N1CCN(c2ccccc2)CC1 |
| i | CCC(C(=O)NCC#CCOc1ccc2c(c1)OCO2)c1ccccc1 (centres undefined) |
| i | COCCN(Cc1ccoc1)C(=O)c1cccc(Cl)c1 |
| i | CCOC(=O)c1ccc(NC(=O)Cn2cnc3ccccc32)cc1 |
| i | CN1CCN(S(=O)(=O)c2ccc(NC(=O)c3ccc(Br)o3)cc2)CC1 |
| i | Cc1c(C(=O)NCc2nc3ccccc3[nH]2)nnn1-c1nccs1 |
| i | CSc1nnc(-c2ccccc2NC(=O)c2cccc(S(=O)(=O)N3CCCCC3)c2)o1 |
| i | COc1coc(C(=O)N2CCN(c3cc(C)ccc3C)CC2)cc1=O |
| i | CCOc1ccc(N2C(=O)C3N=NN(Cc4nc(-c5ccccc5Cl)no4)C3C2=O)cc1 (centres undefined) |
| i | CCOC(=O)C1CCCN(S(=O)(=O)CCNC(=O)c2ccc3c(c2)OCO3)C1 (centres undefined) |
| i | CC(=O)NC1C(=O)N(CCCOc2ccc3ccccc3c2)c2c(C)cc(C)cc21 (centres undefined) |
| i | CCOC(=O)N1CCC(NC(=O)c2nnn(-c3nc(-c4ccccc4)cs3)c2C)CC1 |
| i | Cc1ccc(/C=C/S(=O)(=O)NCCc2csc3nc(-c4ccccc4F)nn23)cc1 |
| i | CC1=C(C(N)=O)C(c2ccc(OC(F)F)cc2)n2ncnc2N1 (centres undefined) |
| i | CCCN1CCCc2cc(CCNC(=O)C(=O)Nc3c(C)cc(C)cc3C)ccc21 |
| i | Cc1ccc(NC(=O)CSc2nccc(N3CCN(c4ccc(F)cc4)CC3)n2)cc1F |
| i | Cc1ccc(C(=O)Cn2nc3c(-c4nc(C)no4)cccn3c2=O)cc1 |
| i | Cn1c(N2CCN(c3ccccc3)CC2)nc2c1c(=O)n(Cc1ccccc1Cl)c(=O)n2C |
| i | O=c1n(Cc2ccc(Cl)cc2)nc2c(S(=O)(=O)N3CCCCCC3)cccn12 |
| i | Cn1c(=O)c2c(nc(N3CCOCC3)n2C)n(C)c1=O |
| i | COc1ccc(-c2coc3cc(OC)ccc3c2=O)cc1 |
| i | CC(=O)Cn1c(=O)c2c(nc3n(-c4cccc(Cl)c4)c(C)cn23)n(C)c1=O |
| i | Cn1cccc1C(=O)N1CCN(Cc2nncn2-c2ccccc2F)CC1 |
| i | CCN1CCN(c2nc3c(c(=O)n(C)c(=O)n3C)n2CC(O)COc2ccccc2)CC1 (centres undefined) |
| i | CCOC(=O)C1=C(C)NC(=O)CC1c1cccc([N+](=O)[O-])c1 (centres undefined) |
| i | COc1cccc(NC(=O)Cn2nc(Nc3ccc(C)cc3)c(S(=O)(=O)c3ccccc3)c2N)c1 |
| i | Cn1c(-c2ccccn2)nn(CCNC(=O)c2cc(-c3cccs3)[nH]n2)c1=O |
| i | O=C(CCCn1c(=S)[nH]c2cc3c(cc2c1=O)OCO3)NCc1ccc2c(c1)OCO2 |
